Vaccinia pol inh – vaccinia E9 polymerase processive synthesis inhibition; in vitro processive DNA synthesis, absorbance read-out; active compounds read low; some inactives read as strong as hits; normalized absorbance, % (concentration not given with the values); hit rate 0.94% among 46,000; AID 493162;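 active = replicate mean up to 90% and picked by the depositor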;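 also: 100% = median of the test wells of a plate; 100 nL library stock went into each well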
* = called active by the depositor. An excerpt. The share of hits here may be higher or lower than overall.

SMILES | Vaccinia pol inh
O=C(NCCO)c1nnc(-c2cccc(Cl)c2)o1 | 100
O=C1CC(CSc2ccc(Cl)cc2)=NN1c1nc2ccccc2s1 | 100
O=C(NC(Nc1ccccc1C(F)(F)F)C(=O)c1ccccc1)c1ccco1 (stereo not given) | 99
Nc1ccccc1-c1nnc(SCC(=O)c2ccccc2)o1 | 98
Cc1ccc(-c2nc3ncccn3c2NC(=O)C2CC2)cc1 | 104
CC(/C(O)=C(\C#N)c1nc2ccccc2[nH]1)N1C(=O)c2ccccc2C1=O (stereo not given) | 100
Nc1c(C(=O)c2ccccc2)sc2nsc(SCCN3CCCC3)c12 | 98
N#Cc1c(/N=C/c2ccccc2O)oc(-c2ccco2)c1-c1ccco1 | 98
Cc1cccc(NS(=O)(=O)c2ccc3c(c2)oc(=O)n3C)c1 | 104
O=C1/C(=C/c2ccccc2C(F)(F)F)N2CCC1CC2 | 100
C/C(=N/n1cnnc1)c1ccccc1 | 106
CN1CCN(c2ccc(NC(=O)c3cccs3)cc2)CC1 | 117
O=C(Oc1c(-c2ccccc2)c(=O)n2c3c(cccc13)CC2)c1ccccc1 | 96
S=C(Nc1cccnc1)N1CCc2ccccc21 | 101
Cc1cccc(C(=O)N2CCCN(C(=O)c3cccc(C)c3)CC2)c1 | 100
Cn1c(C(O)c2ccc3c(c2)OCO3)nc2ccccc21 (stereo not given) | 99
O=C(/C=C/c1ccccc1)Nc1ccc(N2CCN(c3ccc(C(F)(F)F)cn3)CC2)nc1 | 100
CCC(CC)c1nnc(N)s1 | 100
O=C(Nc1ccccc1)c1ccc2c(c1)C(=O)N(CCC1=CCCCC1)C2=O | 87
COc1ccc(OCC(O)CNC(=O)c2cc(C(C)(C)C)nn2C)cc1 (stereo not given) | 104
O=C(NCCc1ccccc1)c1cnn(-c2ccccc2)c1-n1cccc1 | 100
Cc1ccc(NC(=O)CC(C)CC(=O)O)cc1 (stereo not given) | 100
CC(C)(C)c1ccc(-c2ncon2)cc1Cn1nnc(-c2cccc(C(F)(F)F)c2)n1 | 97
O=C(NC(=O)c1ccc(-c2ccc(Cl)cc2)s1)c1ccccc1 | 104
CC(C)CC(Nc1ncnc2c1oc1ccccc12)C(=O)O (stereo not given) | 93

Other structures follow:
SMILES | Vaccinia pol inh
O=C(CSc1ccc2ccccc2c1)N1CCN(C(=O)c2ccco2)CC1 | 93
Nn1c(C(O)c2ccccc2)n[nH]c1=S (stereo not given) | 100
Nc1c(C(=O)N2CCc3ccccc32)sc2nc(C(F)(F)F)c3c(c12)CCCC3 | 101
CC1CCC2(CC1)NC(=S)N(c1ccccc1)N2 (stereo not given) | 100
CN(Cc1ccccc1)C(=O)Nc1ccccc1 | 106
Clc1ccccc1C(c1ccccc1)(c1ccccc1)n1ccnc1 | 99
Cc1c(C#N)c(-c2ccccc2)nc2ccccc12 | 100
CC(C)(C)c1c[n+](-c2ccccc2)c2n1CCS2 | 93
Cc1ccccc1Cn1c(CCNC(=O)C(C)(C)C)nc2ccccc21 | 89
O=C1/C(=C/c2ccc(Br)cc2)C=C(c2ccccc2)N1c1ccccc1O | 101
CC(c1ccco1)N(C(=O)/C=C/c1cccs1)c1ccccn1 (stereo not given) | 100
NCc1ccc(-c2nc3ccccc3o2)cc1 | 93
CCCc1cc(=O)oc2cc3occ(-c4ccccc4)c3cc12 | 100
CCOC(=O)N1CCC(N2Cc3cccc(C(=O)O)c3C2=O)CC1 | 104
CCOC(=O)Cn1c(=O)oc2cc(S(=O)(=O)NC3CCCCC3)ccc21 | 94
CC(=O)n1c(-c2ccc(C)cc2)cc(-c2ccc(C)cc2)c(C#N)c1=O | 79
CN(C(=O)c1cccc(S(=O)(=O)NCc2ccccc2)c1)C1CCCCC1 | 100
CCOc1cc(C)c(Cl)cc1S(=O)(=O)Nc1ccccn1 | 100
CC1=C(/C=C/C(C)=C/C=C/C(C)=C/CO)C(C)(C)CCC1 | 98
COc1ccc(/C(C#N)=C/N2CCOCC2)cc1OC | 92
O=C(OCC(F)(F)F)c1ccc(COc2ccc3ccccc3c2)o1 | 100
CCOC(=O)c1c(-c2ccccc2)oc2ccc(O)c(CN(C)C)c12 | 86
NC(=O)CSc1ncnc2c1oc1ccccc12 | 101
CC1(C)N=C(c2ccccc2)C(=O)N1 | 104
CSc1nc2ccccc2c(=O)n1CCc1ccccc1 | 103

Continued.
SMILES | Vaccinia pol inh
CC1CCC(C(C)C)C(OCC(O)CN2CCCCC2)C1 (stereo not given) | 106
CCN(CC)C(=O)Sc1nc2ccccc2c(=O)n1CC1CC1 | 102
N#CCCN(/N=C/c1ccccc1)C1=NS(=O)(=O)c2ccccc21 | 100
CSc1nc2ccccc2s1 | 100
O=C(CCCOc1ccc(Cl)cc1Cl)Nc1ccc2c(c1)OCCO2 | 101
CC1CN(C(=O)/C=C/c2cn(-c3ccccc3)nc2-c2ccc(Cl)cc2)CC(C)O1 (stereo not given) | 81
O=C(O)C1CCCN1C(=O)Cc1ccccc1 (stereo not given) | 100
O=C1c2ccccc2C(=O)C1(CCO)c1ccccc1 | 99
COc1cc(C)ccc1S(=O)(=O)n1cnc2cc(C)c(C)cc21 | 101
CCSc1sc(CC)cc1C1C(C(=O)Nc2cccnc2)=C(C)NC2=C1C(=O)CCC2 (stereo not given) | 100
OCC[n+]1ccc(/C=C/c2c[nH]c3ccccc23)cc1 | 93
O=C(Nc1ccc2c(c1)OCO2)C1c2ccccc2Oc2ccccc21 | 98
O=C(Nc1ccccc1Br)c1ccc2c(c1)N(Cc1ccc(F)cc1)C(=O)CS2=O (stereo not given) | 100
Cc1ccc(C2Nn3c(nnc3-c3ccccc3)SC2C(=O)NCC2CCCO2)cc1 (stereo not given) | 100
COc1ccc(-c2n[nH]c(=S)o2)cc1OC | 97
CN(C)C(=O)COc1ccc(Oc2ccccc2)cc1 | 109
COc1ccc(C(=O)N2CCCC(C(=O)N3CCCCCC3)C2)cc1 (stereo not given) | 100
Cc1ccc(C(=O)Nc2ncc(Cl)cn2)cc1 | 97
O=C(/C=C/c1ccccc1)NC(=S)Nc1ccc(C(F)(F)F)cc1 | 100
Cc1ccc2cccc(S(=O)(=O)Nc3ccc4c(c3)OCO4)c2n1 | 101
Nc1nc(N)n(-c2ccccc2)c(=Nc2ccccc2)n1 | 86
CCOc1ccc2nc(SCC(=O)c3cccs3)sc2c1 | 100
O=C(NCc1ccncc1)c1cc(-c2ccc(F)cc2)nc2ccccc12 | 106
O=C(NCCCc1ccccc1)c1cnc2ccccn2c1=O | 103
CCc1ccc(N2C(N)=C(C#N)C(c3cccc(Cl)c3)c3c(C)noc32)cc1 (stereo not given) | 100

17 of the compounds above, in markdown.
| canonical_smiles | Vaccinia pol inh |
| --- | --- |
| CSc1nc2ccccc2s1 | 100 |
| O=C(CCCOc1ccc(Cl)cc1Cl)Nc1ccc2c(c1)OCCO2 | 101 |
| CC1CN(C(=O)/C=C/c2cn(-c3ccccc3)nc2-c2ccc(Cl)cc2)CC(C)O1 (stereo not given) | 81 |
| O=C(O)C1CCCN1C(=O)Cc1ccccc1 (stereo not given) | 100 |
| O=C1c2ccccc2C(=O)C1(CCO)c1ccccc1 | 99 |
| COc1cc(C)ccc1S(=O)(=O)n1cnc2cc(C)c(C)cc21 | 101 |
| CCSc1sc(CC)cc1C1C(C(=O)Nc2cccnc2)=C(C)NC2=C1C(=O)CCC2 (stereo not given) | 100 |
| OCC[n+]1ccc(/C=C/c2c[nH]c3ccccc23)cc1 | 93 |
| O=C(Nc1ccc2c(c1)OCO2)C1c2ccccc2Oc2ccccc21 | 98 |
| O=C(Nc1ccccc1Br)c1ccc2c(c1)N(Cc1ccc(F)cc1)C(=O)CS2=O (stereo not given) | 100 |
| Cc1ccc(C2Nn3c(nnc3-c3ccccc3)SC2C(=O)NCC2CCCO2)cc1 (stereo not given) | 100 |
| COc1ccc(-c2n[nH]c(=S)o2)cc1OC | 97 |
| CN(C)C(=O)COc1ccc(Oc2ccccc2)cc1 | 109 |
| COc1ccc(C(=O)N2CCCC(C(=O)N3CCCCCC3)C2)cc1 (stereo not given) | 100 |
| Cc1ccc(C(=O)Nc2ncc(Cl)cn2)cc1 | 97 |
| O=C(/C=C/c1ccccc1)NC(=S)Nc1ccc(C(F)(F)F)cc1 | 100 |
| Cc1ccc2cccc(S(=O)(=O)Nc3ccc4c(c3)OCO4)c2n1 | 101 |

Other results:
SMILES | Vaccinia pol inh
O=C(O)/C=C/c1cn(-c2ccccc2)nc1-c1ccccc1 | 80
Cc1ccc2c(c1)sc(=NC(=O)CN1C(=O)CCC1=O)n2C | 100
Cc1ccc(CN2CCC(C(=O)NC(C)C)CC2)cc1 | 102
O=C(CC1N=C2c3ccccc3N=C(SCC(=O)c3ccccc3)N2C1=O)NCCc1ccccc1 (stereo not given) | 100
O=C1CC(c2ccc(F)cc2)CC(O)=C1C=NCCN1CCN(C(=S)Nc2ccccc2)CC1 (stereo not given) | 100
Cc1cc2ccccc2n1CCNC(=O)Cc1cccc2ccccc12 | 100
CCCn1c(=O)n(CCC)c2c(C)cc(C)cc21 | 100
CC(=O)N1C(=O)/C(=C(\C#N)C(=O)NCCc2ccccc2)c2ccccc21 | 102
O=C1c2ccccc2S(=O)(=O)N1CC1CC(c2ccccc2)=NO1 (stereo not given) | 84
O=C(c1cccs1)N1CCCCC1c1ccccn1 (stereo not given) | 90
Cc1cc(SCC(=O)Nc2ncc(Cl)cc2Cl)nc2ccccc12 | 100
O=C(Cc1ccccc1)NCCSc1c[nH]c2ccccc12 | 100
COc1ccc(-c2csc(-c3ccc(O)cc3)n2)cc1 | 79
COc1ccc2nc(C)c3c(c2c1)OC(C)C3 (stereo not given) | 99
O=C(NCCc1ccccc1)C(C(=O)c1ccccc1)n1ccccc1=O (stereo not given) | 104
FC(F)(F)c1cc(C(F)(F)F)c2ccc3nnnn3c2n1 | 106
CC/C(=C/c1ccccc1)CN1CCCCC1 | 103
O=C(Nc1ccc2ccccc2c1)c1ccc(Br)o1 | 99
C(=C\c1ccccc1)/CSc1nnc(-c2cccnc2)o1 | 100
C(=N\n1cnnc1)/c1ccco1 | 100
COc1ccccc1/C=C/C(=O)OCCN1CCCC1=O | 103
COc1ccc2cc(CCNC(=O)C(C)Oc3ccccc3)c(=O)[nH]c2c1 (stereo not given) | 101
CC1(C)CC(=O)c2cc3c(N)c(C(=O)c4ccccc4)sc3nc2C1 | 101
CC12CC3(C)CC(C)(C1)CC(C(=O)NC(=S)N1CCCC1)(C2)C3 | 100
O=c1ccc(-c2nc3cc(Cl)c(Cl)cc3[nH]2)c[nH]1 | 82

Next records:
SMILES | Vaccinia pol inh
NC(=O)c1ccc2nc3ccsc3c(=O)n2c1 | 103
COc1ccc(C2=NN(CCC(=O)NCCN3CCN(c4cccc(Cl)c4)CC3)C(=O)CC2)cc1 | 96
CCN(CC)c1ccc(/C=N/c2nc3c(s2)CCCC3)c(O)c1 | 99
CC(C)N1C2OC(C3OC4C(O3)N(C(C)C)S(=O)(=O)N4C(C)C)OC2N(C(C)C)S1(=O)=O (stereo not given) | 99
O=C(Cc1ccc(-n2c(=S)[nH]c3ccccc3c2=O)cc1)N1CCCC1 | 93
COC(=O)c1cn(C)c2ccc(S(=O)(=O)N3CCCCC3)cc2c1=O | 95
O=S(=O)(c1ccc(Cl)cc1)C(F)(F)F | 101
C=CCSc1nc2c(cc1C#N)CCC2 | 100
COC(=O)c1[nH]c(C)c(C(=O)OC)c1C | 103
COC(=O)NC12CC3CC(CC(C3)C1)C2 | 101
CCOC(=O)C1(c2ccccc2)CCN(C(=O)c2c(C)oc3ccc(OC)cc23)CC1 | 100
Cc1ccc(-c2nn(CC(=O)NC3CCCc4ccccc43)c(=O)c3ccccc23)cc1 (stereo not given) | 106
N#Cc1c(NC(=O)COc2ccccc2)sc2c1CCC2 | 101
COc1ccc(S(=O)(=O)N2CCCC2C(=O)N2CCc3cc(OC)c(OC)cc3C2)cc1 (stereo not given) | 100
Cc1ccc(/C=C/C(=O)O)cc1S(=O)(=O)N1CCCC1 | 100
O=C(CSc1ccccc1Cl)N1CCCC1 | 102
O=C(CCC(=O)N1CCSc2ccccc21)N1CCCCC1 | 97
COC(=O)C12CC3(C(=O)OC)CC(C(=O)OC)(CC(C(=O)OC)(C1)C3=O)C2=O | 100
COc1ccc(OC2C(=O)N(Cc3ccc4c(c3)OCO4)C2c2cccs2)cc1 (stereo not given) | 103
Cn1nnc2cc(C(=O)N3CCCCC3)ccc21 | 104
CC(C)(C)c1cc(C(C)(C)C)n(-c2ccc(NC(=O)COCC(=O)O)cc2)n1 | 97
CCN(C(=O)CC(C)C)C1CCCCC1 | 102
NNC(=O)/C(=C\c1ccccc1)NC(=O)c1ccccc1 | 98
CCOc1cc(CNC23CC4CC(CC(C4)C2)C3)ccc1OCc1cccs1 | 100
CN1CCCN(C(=O)C2CCCCC2)CC1 | 105

(further entries)
SMILES | Vaccinia pol inh
CC(C)c1ccc(Nc2nc(N3CCCCC3)nc(N3CCCCC3)n2)cc1 | 102
O=C(Cn1c2ccccc2c2ccccc21)Sc1nc2ccccc2s1 | 100
CC1=C(C(=O)Nc2ccccc2)C(c2ccncc2)n2ncnc2N1 (stereo not given) | 101
COc1ccc(-c2cc3nc(C)c(CCC(=O)Nc4ccccc4C(N)=O)c(C)n3n2)c(OC)c1 | 105
COc1ccc(-n2cnc3cc(N=Cc4ccccc4O)ccc32)cc1 | 91
N#CC(C#N)C(c1ccccc1Cl)C(C(N)=O)[n+]1ccccc1 (stereo not given) | 100
C=CCn1nnnc1-c1cccc(Cl)c1 | 115
Cc1cc(NC(=O)Cc2ccccc2)nc2c1c(=O)oc1ccccc12 | 100
COC(=O)c1sc(=S)sc1C(=O)OC | 96
COc1ccc(-c2nn(CCC#N)c(=O)[nH]2)cc1 | 100
CC(=O)OCCn1nc(C)cc1Nc1ccccc1 | 96
C=CCN(CC=C)C(=S)Oc1ccc(C(=O)Nc2cccc3ccccc23)cc1 | 100
CCOCC(=O)NC1CCSC1=O (stereo not given) | 100
COc1cc(-c2nc3c4ccccc4c4ccccc4c3[nH]2)ccc1O | 97
Oc1cccc(/C=N/N2CCCCC2)c1O | 100
COC(=O)C(N)Cc1ncc(C(F)(F)F)cc1Cl (stereo not given) | 103
CCOC(=O)Nc1nc2c(Cl)cccc2s1 | 101
O=C(NCc1cc2ccccc2s1)c1ccccc1N1CCOCC1 | 94
CN(C)CCN(Cc1ccccc1)Cc1ccc(Cl)cc1 | 100
O=C(c1cnc2c(c1)COc1ccccc1-2)c1cc(Cl)ccc1O | 100

Assay outcomes as filed in PubChem.
